From PubChem BioAssay
GLA inh pH 4.5 – blocks human alpha-galactosidase A at pH 4.5; 230,000 tested, under 10 active; purified enzyme, 4-MU-alpha-Gal fluorescence, pH 4.5; activity change, negative = inhibition, % at 105 µM; AID 1467; P06280; inconclusive = small, poorly fitted or top-dose-only inhibition, or a rising curve; inactive = flat fitted curve, though single readings scatter; no compound was filed as active;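 note: 0% = full activity with enzyme and -100% = basal without enzyme; dose as in the result columns while the protocol names 77 µM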
miR-21 reporter – miR-21 reporter, rising signal | HeLa miR-21 FLuc reporter, luciferase, 48 h | Potency, µM (titrated, usually from 38.3 µM), for the others: at the top dose reporter change, positive = more light | 340,000 tested, under 10 active; active = well fitted rising curve with a large enough effect; inconclusive = small, poorly fitted or top-dose-only effect; inactive = no such curve, though single readings can be large or run the other way;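 note: % of control where 0% means no effect; miR-21 action dims this reporter so a rising signal means less miR-21 action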
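Luminescence from a firefly luciferase reporter carrying a miR-21 binding site downstream, stably expressed under a CMV promoter in HeLa cells that make miR-21 endogenously, reports miRNA modulation after 48 h compound exposure up to approximately 40uM final.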
Rango dissoc inh – inhibition of RanGTP-driven Rango-importin beta dissociation; O95149+P62826; Biochemical FRET Rango-importin beta, RanGTP-induced dissociation; Potency, µM (series often up to 46.1 µM), for the others: at the top dose activity change, negative = inhibition; actives 0.071% (n = 340,000); active means falling FRET ratio curve, often poorly fitted, with flat reads before Ran was added; inconclusive means other falling curves, or compound fluorescence or quenching; inactive means flat or rising ratio curve;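 note: potency is the fitted concentration of half-maximal effect; % of control where 0% means no effect; nearly all actives have a fitted effect of over 45% in size; -100% = wells without RanGTP and RCC1; the record marks most hits as doubtful in a second field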
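Compounds sat 5 min at room temperature with 0.1 uM Rango biosensor plus 0.25 uM importin beta, then FRET pre-read. RanGTP-RCC1 (0.6 uM Ran, 2mM GTP, 0.2 uM RCC1) added for 45 min, and the CFP/YFP post-read measured blocked complex dissociation.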
Rango-impB inh – prevents formation of the Rango-importin beta complex | Rango CFP/YFP FRET sensor + importin beta, 45 min | Potency, µM (series often up to 92.2 µM), inactives show top-dose inhibition of complex formation | actives 0.031% (n = 340,000) | AID 540263; active = rising FRET ratio curve, often small or poorly fitted; inconclusive = mostly compound fluorescence or quenching in the first reads; inactive = flat curves in all reads;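 note: potency is the fitted concentration of half-maximal effect; 0% = DMSO wells and 100% = buffer wells lacking importin beta; nearly all actives have a fitted effect of over 15% in size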
Target sequence (Q14974 whole entry, looked up): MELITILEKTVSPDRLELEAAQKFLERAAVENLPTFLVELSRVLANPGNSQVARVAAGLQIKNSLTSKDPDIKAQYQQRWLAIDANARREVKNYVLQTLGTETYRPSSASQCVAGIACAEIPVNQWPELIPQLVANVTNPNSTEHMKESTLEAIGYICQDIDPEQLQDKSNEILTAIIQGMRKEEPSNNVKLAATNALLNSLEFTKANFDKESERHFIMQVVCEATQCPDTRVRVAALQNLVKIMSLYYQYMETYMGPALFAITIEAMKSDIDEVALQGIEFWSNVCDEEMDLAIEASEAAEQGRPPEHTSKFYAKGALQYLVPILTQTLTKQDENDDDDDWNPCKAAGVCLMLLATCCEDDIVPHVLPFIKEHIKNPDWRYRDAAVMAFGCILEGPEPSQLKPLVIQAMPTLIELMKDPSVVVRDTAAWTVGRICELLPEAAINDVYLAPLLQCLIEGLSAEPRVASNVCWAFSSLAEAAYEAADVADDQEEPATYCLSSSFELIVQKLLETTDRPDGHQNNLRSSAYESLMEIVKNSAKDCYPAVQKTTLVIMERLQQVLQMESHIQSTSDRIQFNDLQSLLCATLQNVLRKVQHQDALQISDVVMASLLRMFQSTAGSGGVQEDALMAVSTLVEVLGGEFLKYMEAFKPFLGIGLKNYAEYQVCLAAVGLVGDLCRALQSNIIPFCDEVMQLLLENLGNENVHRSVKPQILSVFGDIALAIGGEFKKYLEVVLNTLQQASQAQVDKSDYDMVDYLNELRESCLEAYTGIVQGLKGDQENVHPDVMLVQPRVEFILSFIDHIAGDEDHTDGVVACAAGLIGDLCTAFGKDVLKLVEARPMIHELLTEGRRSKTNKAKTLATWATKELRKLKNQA
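Inhibition scored from the CFP 486 nm/YFP 530 nm FRET ratio 45 min after adding 0.125 microM importin beta to 50 nM Rango biosensor preincubated 5 min with compound (room temperature, PBS with DTT, Tween-20, BSA). No-importin wells as positive control.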
* = called active by the depositor; & = joins results of further samples. The list is partial; the hit share may differ from the screen's.

Results for O=C(Nc1nc2ccc(C(=O)N3CCCCC3)cc2s1)C1CCCCC1 ?
GLA inh pH 4.5: -7; miR-21 reporter: -14%; Rango dissoc inh: 5%; Rango-impB inh: -1.1%

How did COc1ccc(C(=O)N[C@H](C(=O)OCCCOC(=O)[C@@H](NC(=O)c2ccc(OC)cc2)C(C)C)C(C)C)cc1 do in these assays?
Rango dissoc inh: 13%; Rango-impB inh: -5.3%

How did O=C(CSc1cccc2cccnc12)Nc1cccc(S(=O)(=O)N2CCOCC2)c1 do in these assays?
GLA inh pH 4.5: 1; miR-21 reporter: 1%; Rango dissoc inh: 0%; Rango-impB inh: 4.6%

Results for COc1ccc(N)cc1S(=O)(=O)Nc1ccccc1Cl ?
GLA inh pH 4.5: -8; miR-21 reporter: 0%; Rango dissoc inh: 13%; Rango-impB inh: 5.4%

Results for COc1cccc(NC(=O)C(=O)NCCC2CCCCN2S(=O)(=O)c2ccccc2)c1 (centres undefined) ?
Rango dissoc inh: -3%; Rango-impB inh: 3.0%

Results for COCCNC(=O)CN1CCC(NC(=O)Nc2ccccc2)CC1 ?
GLA inh pH 4.5: 1; miR-21 reporter: -10%; Rango dissoc inh: -6%; Rango-impB inh: 0.8%

What do the screens show for `Cc1cc(Nc2ccccc2Cl)c2ccccc2n1`?
Rango dissoc inh: 9%; Rango-impB inh: -3.4%

What do the screens show for `Cc1ccc(-c2cc3nc(-c4ccccc4)cc(N4CCC5(CC4)OCCO5)n3n2)cc1`?
GLA inh pH 4.5: 2; miR-21 reporter: -10%; Rango dissoc inh: inconclusive; Rango-impB inh: inconclusive

How did COC(=O)C1=C(C)N(Cc2ccccc2)C(=NCc2cc(OC)c(OC)c(OC)c2)N[C@H]1c1cccc(F)c1 do in these assays?
miR-21 reporter: 22%&22%; Rango dissoc inh: 7%; Rango-impB inh: -0.1%

How did O=c1sc2ccccc2c(N2CCN(c3ccccc3)CC2)c1[N+](=O)[O-] do in these assays?
GLA inh pH 4.5: -10; miR-21 reporter: 4%; Rango dissoc inh: -3%; Rango-impB inh: -0.4%

Results for CCCC[n+]1ccn(C2=C([O-])c3ccccc3C(=O)/C2=N\S(=O)(=O)c2ccccc2)c1 ?
GLA inh pH 4.5: -11; miR-21 reporter: 19%; Rango dissoc inh: -5%; Rango-impB inh: -0.2%

What do the screens show for `COc1cccc(CNC(=O)C(NS(=O)(=O)c2ccc3c(c2)CCN3C(C)=O)C(C)C)c1` (centres undefined)?
miR-21 reporter: -8%&0%; Rango dissoc inh: 4%; Rango-impB inh: -4.6%

Results for Cc1ccc(OCC(=O)N/N=C\c2cccs2)c([N+](=O)[O-])c1 ?
GLA inh pH 4.5: -4; miR-21 reporter: -31%; Rango dissoc inh: 19%; Rango-impB inh: inconclusive

What do the screens show for `C[C@H](NC(=O)c1ccco1)C(=O)N1CCCC1`?
miR-21 reporter: 6%; Rango dissoc inh: 1%; Rango-impB inh: 0.3%

Results for CC(C)(C)NC(=O)C(c1ccncc1)N(Cc1cccs1)C(=O)c1csnn1 (centres undefined) ?
GLA inh pH 4.5: 5; miR-21 reporter: -2%; Rango dissoc inh: -12%; Rango-impB inh: 1.6%

How did CN(C)c1ccc(S(=O)(=O)c2ccc(Cl)cc2)cc1 do in these assays?
GLA inh pH 4.5: -12; miR-21 reporter: -6%; Rango dissoc inh: -19%; Rango-impB inh: -0.4%

What do the screens show for `CCCCN1C(=S)NC[C@@H]1C(C)CC` (some centres undefined)?
GLA inh pH 4.5: 2; miR-21 reporter: 5%; Rango dissoc inh: -16%; Rango-impB inh: -2.9%

How did CCCCCn1cnc2sc(CC)cc2c1=O do in these assays?
GLA inh pH 4.5: 0; miR-21 reporter: -56%; Rango dissoc inh: 37%; Rango-impB inh: -3.4%

Results for O=C(NCc1ccc2c(c1)OCO2)C(=O)NCC1OCCN1S(=O)(=O)c1ccccc1 (centres undefined) ?
Rango dissoc inh: 0%; Rango-impB inh: 0.1%

What do the screens show for `CC(C)(C)NC(=O)c1cccc(NC(=O)CSc2ccccc2)c1`?
GLA inh pH 4.5: 3; miR-21 reporter: -10%; Rango dissoc inh: 5%; Rango-impB inh: -1.5%

Looked up by structure from above (4):
What do the screens show for `Cc1ccc(-c2cc3nc(-c4ccccc4)cc(N4CCC5(CC4)OCCO5)n3n2)cc1`?
GLA inh pH 4.5: 2; miR-21 reporter: -10%; Rango dissoc inh: inconclusive; Rango-impB inh: inconclusive

Results for COc1ccc(N)cc1S(=O)(=O)Nc1ccccc1Cl ?
GLA inh pH 4.5: -8; miR-21 reporter: 0%; Rango dissoc inh: 13%; Rango-impB inh: 5.4%

What do the screens show for `C[C@H](NC(=O)c1ccco1)C(=O)N1CCCC1`?
miR-21 reporter: 6%; Rango dissoc inh: 1%; Rango-impB inh: 0.3%

What do the screens show for `Cc1cc(Nc2ccccc2Cl)c2ccccc2n1`?
Rango dissoc inh: 9%; Rango-impB inh: -3.4%

Other entries:
How did CCOC(=O)C1(CCCc2ccccc2)CCN(C(=O)c2cc(C)nc(C)n2)CC1 do in these assays?
GLA inh pH 4.5: -1; miR-21 reporter: -4%; Rango dissoc inh: 4%; Rango-impB inh: 0.6%

What do the screens show for `CCC(CC)c1nnc(NC(=O)CS(=O)(=O)c2ccccc2)s1`?
miR-21 reporter: -4%; Rango dissoc inh: -3%; Rango-impB inh: 4.8%

How did CCC(C)[C@@H]1NC(=O)N(CCCN2CCCC2=O)C1=O (some centres undefined) do in these assays?
miR-21 reporter: -2%; Rango dissoc inh: 10%; Rango-impB inh: -0.4%

What do the screens show for `Cc1ccc(NC(=O)CCC(=O)N2CCOCC2)nc1`?
Rango dissoc inh: 4%; Rango-impB inh: 3.5%

How did Cc1ccc(C(=O)Cc2nc3ccccc3[nH]2)cc1 do in these assays?
miR-21 reporter: -45%; Rango dissoc inh: -18%; Rango-impB inh: -1.5%

How did Cc1cc2c(NC(=O)Nc3ccc(C(C)(C)C)cc3)cccc2nn1 do in these assays?
GLA inh pH 4.5: -4; miR-21 reporter: 16%; Rango dissoc inh: -21%; Rango-impB inh: -2.2%

What do the screens show for `COc1ccc(N2C(=S)NC(C)(C)CC2(C)c2ccc(OC(C)=O)cc2OC(C)=O)cc1` (centres undefined)?
GLA inh pH 4.5: -5; miR-21 reporter: 1%; Rango dissoc inh: -3%; Rango-impB inh: -0.4%

How did COc1ccc(S(=O)(=O)N2CCCCC2)cc1NC(=O)CCNC(=O)c1ccc(Cl)cc1 do in these assays?
Rango dissoc inh: -11%; Rango-impB inh: 0.7%

How did COc1ccc(C(=O)Nc2oc(-c3ccccc3)c(-c3ccccc3)c2C#N)cc1OC do in these assays?
GLA inh pH 4.5: -28; miR-21 reporter: 9%; Rango dissoc inh: 26%; Rango-impB inh: -1.1%

How did OCCNCc1cc(Br)ccc1OCc1ccc(Cl)cc1 do in these assays?
GLA inh pH 4.5: -9; miR-21 reporter: 11%; Rango dissoc inh: 4%; Rango-impB inh: 1.9%

How did COc1ccc(-c2nnc(NC(=O)c3ccc(F)cc3)o2)cc1 do in these assays?
GLA inh pH 4.5: 6; miR-21 reporter: 10%; Rango dissoc inh: 18%; Rango-impB inh: 5.1%

Results for COc1ccccc1NC(=S)N1CCN(Cc2ccc3c(c2)OCO3)CC1 ?
GLA inh pH 4.5: -7; miR-21 reporter: -5%; Rango dissoc inh: -8%; Rango-impB inh: 3.8%

What do the screens show for `CCOc1ccc(N2C(=O)CC(NC3CCN(C(=O)c4ccc(F)cc4)CC3)C2=O)cc1` (centres undefined)?
miR-21 reporter: 1%; Rango dissoc inh: -11%; Rango-impB inh: inconclusive

How did COc1cc(SSc2cc(OC)cc([N+](=O)[O-])c2N)c(N)c([N+](=O)[O-])c1 do in these assays?
GLA inh pH 4.5: -5; miR-21 reporter: -9%; Rango dissoc inh: 4%; Rango-impB inh: -0.2%

Results for Cc1c(CNC(=O)c2cnn3c2NC(c2ccc(Br)cc2)CC3C(F)(F)F)cnn1C (centres undefined) ?
GLA inh pH 4.5: -5; miR-21 reporter: -3%; Rango dissoc inh: 12%; Rango-impB inh: 0.6%

What do the screens show for `O=C(CNC(=O)C1COc2ccccc2O1)Nc1ccc(F)c(F)c1` (centres undefined)?
Rango dissoc inh: 23%; Rango-impB inh: -0.7%

Results for O=C(NC1CCCCC1)c1c2c(nc3ccccc13)CCC2 ?
GLA inh pH 4.5: -3; miR-21 reporter: -5%; Rango dissoc inh: -3%; Rango-impB inh: 0.4%

Results for COc1ccc(OC)c(S(=O)(=O)N2CCN3CCCC3C2)c1 (centres undefined) ?
miR-21 reporter: -13%; Rango dissoc inh: 19%; Rango-impB inh: -0.1%

What do the screens show for `Cc1ccc(C2(O)CN(c3ccccc3)C3=[N+]2CCS3)cc1` (centres undefined)?
GLA inh pH 4.5: -1; miR-21 reporter: -9%; Rango dissoc inh: 0%; Rango-impB inh: -4.3%

How did Cc1cc(-c2ccc(S(=O)(=O)Nc3ccc(C#N)cc3)s2)on1 do in these assays?
miR-21 reporter: -3%; Rango dissoc inh: 0%; Rango-impB inh: 0.7%

How did CCn1c(=O)[nH]c2cc(C(=O)N3CCN(c4ccccc4)CC3)ccc2c1=O do in these assays?
GLA inh pH 4.5: -4; miR-21 reporter: -1%; Rango dissoc inh: -4%; Rango-impB inh: -2.1%

What do the screens show for `O=c1[nH]n(-c2cccc(Cl)c2)c2ncccc12`?
GLA inh pH 4.5: 5; miR-21 reporter: -7%; Rango dissoc inh: -18%; Rango-impB inh: 3.1%

How did COc1ccc(/C=N/NC(=O)c2cc(C34CC5CC(CC(C5)C3)C4)[nH]n2)cc1OC do in these assays?
GLA inh pH 4.5: -6; miR-21 reporter: -9%; Rango dissoc inh: 12%; Rango-impB inh: -3.4%

How did COC(=O)COc1ccc2c(=O)c(Oc3ccccc3Br)coc2c1 do in these assays?
miR-21 reporter: -1%; Rango dissoc inh: 1%; Rango-impB inh: 1.2%

How did N#CC1=C(N)Oc2ccccc2C12C(=O)Nc1n[nH]c(-c3ccccc3)c12 (centres undefined) do in these assays?
GLA inh pH 4.5: -4; miR-21 reporter: -3%; Rango dissoc inh: -8%; Rango-impB inh: 2.7%

How did COc1ccccc1NC(=O)c1nn(-c2cccc(C(F)(F)F)c2)ccc1=O do in these assays?
GLA inh pH 4.5: -3; miR-21 reporter: -3%; Rango dissoc inh: -26%; Rango-impB inh: 1.4%

How did COc1ccc(C2NC(=O)c3ccccc3N2)cc1 (centres undefined) do in these assays?
miR-21 reporter: -32%; Rango dissoc inh: -6%; Rango-impB inh: -0.4%

Results for S=C(Nc1ccc(Br)cc1)NC1CCCC1 ?
GLA inh pH 4.5: -2; miR-21 reporter: -39%; Rango dissoc inh: -8%; Rango-impB inh: -0.4%

What do the screens show for `COC(=O)c1ccccc1NC(=O)CN(c1ccccc1)S(=O)(=O)N(C)C`?
Rango dissoc inh: 0%; Rango-impB inh: 4.2%

How did CC(C)CC(NS(=O)(=O)c1ccccc1S(=O)(=O)NC(CC(C)C)C(=O)O)C(=O)O (centres undefined) do in these assays?
miR-21 reporter: 0%; Rango dissoc inh: -7%; Rango-impB inh: 0.1%

How did CC1=C2C3OC(=O)C(C)C3CCC2(C)C=CC1=NO (centres undefined) do in these assays?
Rango dissoc inh: 0%; Rango-impB inh: -0.9%

Results for CCCCN(C(=O)c1cc2c(s1)CCCC2)c1c(N)n(CCC)c(=O)[nH]c1=O ?
Rango dissoc inh: 2%; Rango-impB inh: -2.1%

How did COc1ccc(C2C(C(=O)N3CCCC3)c3cc(OC)c(OC)cc3C(=O)N2C)cc1OC (centres undefined) do in these assays?
GLA inh pH 4.5: 6; miR-21 reporter: -10%; Rango dissoc inh: 1%; Rango-impB inh: 1.9%

How did O=C1CCc2cc(NS(=O)(=O)c3ccc([N+](=O)[O-])cc3)cc3c2N1CC3 do in these assays?
Rango dissoc inh: 38%; Rango-impB inh: -0.5%

Results for O=C1CCC(C(=O)N2CCCCO2)CN1Cc1ccc(Cl)cc1 (centres undefined) ?
miR-21 reporter: -3%; Rango dissoc inh: -3%; Rango-impB inh: 1.0%

How did CC(O)CN(Cc1cccc(Cl)c1)CC(C)O (centres undefined) do in these assays?
GLA inh pH 4.5: 0; miR-21 reporter: -2%; Rango dissoc inh: -10%; Rango-impB inh: -1.8%
